Marburg entry inh: blocks Marburg virus binding to or entry into cells; Marburg virus pseudotyped entry inhibition, cell reporter; control for the full effect not named in the record; about a third of the inactives were read at about 46 µM; 300,000 tested, 1.8% active; Potency, µM (series often up to 37.8 µM), inactives show top-dose activity change, negative = inhibition, most hits filed as inhibitors; active = well fitted inhibition curve with a large enough effect; inconclusive = small, poorly fitted or top-dose-only effect, or effect the other way; inactive = flat fitted curve, though single readings scatter; tested in HEK293 cells; about a fifth of its hits are not listed in these tables; also: % is scaled to controls: 0 for no effect and ±100 for the full control effect; luciferase read-out
Cruzain inh Det: inhibitors of Trypanosoma cruzi cruzain with detergent. purified cruzain, Z-FR-AMC fluorescence, 0.01% Triton. Potency, µM, for the others: max response, negative = inhibition, most hits filed as inhibitors. 200,000 tested, 0.43% active. AID 1478; active = well fitted curve in the direction sought with a large enough effect; inconclusive = small, poorly fitted or top-dose-only effect, or another doubt; inactive = no such curve, though single readings can be large; an effect the other way counts as inactive or inconclusive;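 also: plate controls were neutral wells for no effect and buffer without enzyme for full effect; nearly all actives have a fitted effect of over 40% in size; top concentration of the series not given in the record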
Target sequence (P25779 123-467 limits assumed): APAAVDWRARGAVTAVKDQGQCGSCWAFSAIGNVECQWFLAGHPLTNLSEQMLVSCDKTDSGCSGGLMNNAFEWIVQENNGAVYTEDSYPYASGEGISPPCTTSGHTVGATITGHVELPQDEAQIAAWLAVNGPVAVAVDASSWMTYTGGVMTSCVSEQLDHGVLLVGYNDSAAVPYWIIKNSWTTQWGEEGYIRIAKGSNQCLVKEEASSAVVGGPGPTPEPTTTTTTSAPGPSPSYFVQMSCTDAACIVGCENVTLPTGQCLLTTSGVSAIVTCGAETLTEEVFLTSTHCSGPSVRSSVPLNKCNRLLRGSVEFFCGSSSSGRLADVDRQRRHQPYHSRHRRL
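Cysteine protease activity tested under reducing, mildly acidic conditions (100 mM sodium acetate pH 5.5, 5 mM DTT) plus 0.01% Triton X-100. Cruzain 1.5 nM; substrate Z-FR-AMC 2 uM; 15 min compound preincubation at room temperature.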
Cruzain noTriton: blocks cruzain activity in detergent-free assay; P25779; 200,000 tested, 2.3% active; purified cruzain, Z-FR-AMC fluorescence, no detergent; Potency, µM, for inactives: max response, negative = inhibition, most hits filed as inhibitors; active = well fitted curve in the direction sought with a large enough effect; inconclusive = small, poorly fitted or top-dose-only effect, or another doubt; inactive = no such curve, though single readings can be large; an effect the other way counts as inactive or inconclusive;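 also: plate controls were enzyme without inhibitor for no effect and buffer without enzyme for full effect; nearly all actives have a fitted effect of over 40% in size; top concentration of the series not given in the record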
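Purified cruzain at 1.5 nM, pre-incubated 15 min with compound at room temperature in 100 mM sodium acetate pH 5.5, 5 mM DTT, 0.00005% Triton X-100. Reaction started with 2 uM Z-FR-AMC; AMC fluorescence increase over 60 s gives rate.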
NS1 inh: blocks influenza NS1 protein function. S. cerevisiae slowed by influenza A NS1, growth recovery by OD600. Potency, µM (highest dose often 46.1 µM), for the others: top-dose activity, positive = more growth. 270,000 tested, 0.4% active. AID 2326; also: actives are rising curves; nearly all actives have a fitted effect of over 50% in size
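Growth recovery, yeast-based: influenza A NS1 expressed in S. cerevisiae causes slow growth, and suppressors are detected by OD600. The parent strain without NS1 is used as positive control.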
SARS PLP yeast: inhibitors of SARS-CoV papain-like protease in yeast; Potency, µM (titrated, usually from 32.9 µM), for inactives: at the top dose activity, positive = growth rescue; S. cerevisiae expressing SARS-CoV PLpro, growth rescue; control for the full effect not named in the record; 330,000 tested, 0.19% active; also: 0% is about no effect; nearly all actives have a fitted effect of over 55% in size; growth read by luminescence after 48 h
StopGo reporter: lowers the luciferase signal of an FMDV 2A StopGo reporter; human cells with a luciferase reporter of 2A StopGo recoding; control for the full effect not named in the record; Potency, µM (top dose mostly 57.9 µM), without a hit: top-dose signal change, negative = less light; 410,000 tested, 1.2% active; active = well fitted falling curve with a large enough effect; inconclusive = small, poorly fitted or top-dose-only effect; inactive = no such curve, though single readings can be large or run the other way; tested in HEK293T cells; also: % is scaled to controls: 0 for no effect and ±100 for the full control effect; nearly all actives have a fitted effect of over 45% in size; luciferase light after 4 h
Lassa entry inh: Lassa virus entry inhibition | Lassa virus pseudotype entry inhibition, cell reporter; control for the full effect not named in the record | AID 540256 | Potency, µM (doses to about 37.9 µM), for the others: at the top dose activity change, negative = inhibition, usual class: inhibitors | 300,000 tested, 1.2% active; active means well fitted inhibition curve with a large enough effect; inconclusive means small, poorly fitted or top-dose-only effect, or effect the other way; inactive means flat fitted curve, though single readings scatter; tested in HEK293 cells; also: % is scaled to controls: 0 for no effect and ±100 for the full control effect; nearly all actives have a fitted effect of over 50% in size; luciferase read-out
RE007 growth inh: less growth of the S. pombe RE007 Vpr strain; S. pombe RE007 Vpr strain, BacTiter-Glo ATP luminescence, 24 h; control for the full effect not named in the record; Potency, µM (titrated, usually from 92.2 µM), inactives show at the top dose activity change, negative = less growth; 360,000 tested, 0.21% active; active = well fitted falling curve with a large enough effect; inconclusive = small, poorly fitted or top-dose-only effect; inactive = no such curve, though single readings can be large or run the other way;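 also: % is scaled to controls: 0 for no effect and ±100 for the full control effect; nearly all actives have a fitted effect of over 50% in size; the assay follows cell death caused by Vpr and the record does not say whether a fall means rescue or toxicity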
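Fission yeast RE007 carrying one integrated HIV-1 vpr copy, seeded at OD 0.01 in PMG+AL medium with 23 nL pinned compound. Grown 24 h at 30 degrees; viability read by BacTiter-Glo luminescence after 5 min.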
* = called active by the depositor; ? = inconclusive; / = no result given; & = joins results of further samples; [ ] = dose if it differs, or a comment. Unless noted, calls follow the shape of the dose curve; as a rule, active means well fitted rising curve with a large enough effect; inconclusive means small, poorly fitted or top-dose-only effect; inactive means no such curve, though single readings can be large or run the other way. Potency is read from the fitted curve at half-maximal effect.

The first two records as a preview:
smiles	Cruzain inh Det	SARS PLP yeast	Cruzain noTriton	RE007 growth inh	StopGo reporter	Lassa entry inh	Marburg entry inh	NS1 inh
CCOC(=O)c1c(S(=O)(=O)NCCc2cccs2)c(C)n(C)c1C	/	-3%	/	9%	8%	6%[46.1 µM]	1%[46.1 µM]	0%
O=C(O)c1ccc(-n2nnnc2SCc2ccccc2)cc1	3.6%	8%	-6%	-10%[3.69 µM]	-9%	1%	-1%	-49%

All compounds of this part (from the top)
smiles	Cruzain inh Det	SARS PLP yeast	Cruzain noTriton	RE007 growth inh	StopGo reporter	Lassa entry inh	Marburg entry inh	NS1 inh
CCOC(=O)c1c(S(=O)(=O)NCCc2cccs2)c(C)n(C)c1C	/	-3%	/	9%	8%	6%[46.1 µM]	1%[46.1 µM]	0%
O=C(O)c1ccc(-n2nnnc2SCc2ccccc2)cc1	3.6%	8%	-6%	-10%[3.69 µM]	-9%	1%	-1%	-49%
CC(=O)c1cn(CC(=O)NCc2ccco2)c2ccccc12	1.8%	0%	-5%	-20%	-1%	19%	-5%	-8%
Cc1ccnc(Sc2ncccc2[N+](=O)[O-])n1	1.2%	-2%	3%	14%	-11%	-10%	7%[46.1 µM]	0%
CC1=C(/C=C/C(C)=C/C=C/C(C)=C/CO)C(C)(C)CCC1	-2.0%&-3.1%&-6.8%	/	?	-14%	-26%&0%&4%	/	/	/
Cc1cccc(-n2ncc3c(N4CCCCCC4)ncnc32)c1	0.5%	/	-2%	/	16µM*	-5%[46.1 µM]	/	/
COCCN(C(=O)CCSc1ccc(F)cc1)c1c(N)n(Cc2ccccc2)c(=O)[nH]c1=O	/	-2%	/	-11%	-32%	3%	0%	/
O=C(Nc1c(C(=O)Nc2ccc(F)cc2)oc2ccccc12)c1cc2ccccc2o1	-2.1%	/	13µM*	/	35%[activator]	22%[46.1 µM]	-3%[46.1 µM]	/
CCC1CCCCN1CCCNC(=O)C1CCN(S(=O)(=O)N2CCCCC2)CC1 (stereo not given)	-2.3%	4%	0%	-10%	/	-2%	-5%	-5%
CC[C@]12c3[nH]c4ccc(Cl)cc4c3CCN1C(=O)[C@@H](CC(=O)NCCCOC)C[C@@H]2C(=O)N1CCN(C(=O)c2ccco2)CC1	/	-11%	/	-11%	-14%	/	-2%	/
COc1ccc(S(=O)(=O)N2CCOCC2)cc1C(=O)NCc1c(C)nn(Cc2ccccc2)c1C	/	/	/	17%	4%	6%	-8%	/
NC(=O)c1cnn2c(C(F)(F)F)cc(-c3ccccc3)nc12	2.0%	/	-8%	-12%	-16%	-13%	-10%	-2%
CCSc1nnc(NC(=O)CSc2nccn2-c2cccc(C)c2)s1	-3.5%	1%	1%	6%	-23%	-9%	?	-64%
Cc1cc2ncn(-c3ncnc4sc5c(c34)CCC(C)C5)c2cc1C (stereo not given)	-9.7%	2%	-5%	17%	9%	-1%	-2%	?
Cc1cccc(C(=O)C2CCN(S(=O)(=O)c3cccc(C(=O)O)c3)CC2)c1	/	9%	/	-14%	-8%	9%	13%[46.1 µM]	4%
Cc1ccc(Cn2c(=O)n(CCc3ccccc3)c(=O)c3sc4ccccc4c32)cc1	0.4%	/	1%	/	37%[activator]	?	12%[46.1 µM]	/
CC1CC(=O)Nc2ccc([N+](=O)[O-])cc2N1C (stereo not given)	-3.7%	?	-3%	-2%	-25%	5%	2%	5%
COc1ccc(C2C(C(=O)N3CC(C)CC(C)C3)c3ccccc3C(=O)N2C)cc1 (stereo not given)	0.8%	5%	-4%	-1%	-3%	-20%	19%&19%	-1%
CSc1nsc(SC)c1NC(=O)N1CCCC1	4.9%	6%	-1%	-1%	10%	15%	0%	?
COc1ccc(N2C(=O)C3C4c5ccccc5C(C=Nc5ccc(C)cc5C)(c5ccccc54)C3C2=O)cc1 (stereo not given)	/	/	/	7%	-23%	?	-27%	/
COC(=O)c1ccccc1NC(=O)c1cc(CN2CCOCC2)on1	-2.2%	/	12%	/	-5%	0%[46.1 µM]	/	/
O=[N+]([O-])c1ccc2c(c1)Cc1cc(O)ccc1-2	/	/	/	-8%	1%	11%	?	/
Cc1c(C(=O)OCC(=O)Nc2cccc(S(N)(=O)=O)c2)oc2c1ccc1ccccc12	/	2%	/	3%	?	/	/	7%
O=C(CSc1nncs1)Nc1nccs1	/	1%	/	6%	-6%	16%	26%[46.1 µM]	/
NC(=S)Cc1ccc(Cl)cc1Cl	/	22%	/	12%	-8%	15%	?	-1%

The list goes on.
smiles	Cruzain inh Det	SARS PLP yeast	Cruzain noTriton	RE007 growth inh	StopGo reporter	Lassa entry inh	Marburg entry inh	NS1 inh
O=C(CCCSc1ccc(Cl)cc1)Nc1ccccc1O	/	-69%	/	35µM*	13%	8%[46.1 µM]	?	-128%
CCOC(=O)C1=C(C)NC(C)=C(C(=O)OCC)C1C(=O)OCC(=O)NCc1ccccc1OC	/	5%	/	8%	22%	?	?	/
CC(C)C(NC(=O)CN1C(=O)c2ccccc2S1(=O)=O)C(C)C	0.9%	7%	-11%	1%	-13%	/	/	3%
Oc1ccccc1/C=N/Nc1ccccc1	-13%	-45%	-6%	-2%	34%[activator]	?	?	-30%
C=CCN(C(=O)c1csnn1)C(C(=O)NC1CCCC1)c1ccc(F)cc1 (stereo not given)	/	0%	/	-13%	-19%	-5%	-1%[46.1 µM]	2%
c1ccc(-c2nc(NC3CC3)nc(-n3ccnc3)n2)cc1	4.6%	-8%	-1%	-18%	-13%	-1%	-2%	-46%
CC1Cc2ccccc2N1C(=O)CN1CCC(n2nnc3cc(C(F)(F)F)ccc32)CC1 (stereo not given)	-5.4%	23%	2%	7%	20µM*	-30%	?	2%
CCOC(=O)c1c(NC(=O)CCNCc2ccco2)sc2c1CCC2	/	-5%	/	-8%	5%	-3%	?	-11%
CSc1ncccc1C(=O)N1CCN(S(=O)(=O)c2ccccc2)CC1	/	2%	/	15%	-6%	?	-16%[46.1 µM]	?
Cc1ccc(S(=O)(=O)N2CCCCC2)cc1NC(=O)c1cccnc1	/	-2%	/	6%	-22%	-23%	2%	/
CCc1ccc2oc(C(=O)NCc3ccc(S(N)(=O)=O)cc3)c(C)c2c1	/	0%	/	1%	7%	?	1%[46.1 µM]	-1%
Cc1ccc(-n2nc(C(=O)NC(C)C)c(=O)n(C)c2=O)cc1	-0.5%	/	1%	/	13%	-5%[46.1 µM]	/	/
CCC(C)NC(=O)c1ccccc1NC(=O)c1ccccc1N(C)S(C)(=O)=O (stereo not given)	-1.4%	24%	12%	-11%	7%	?	25%	4%
Cc1ccc(N(CC(=O)Nc2ccccc2-c2ccccc2)S(=O)(=O)c2ccccc2)cc1	2.3%	14%	?	0%	-10%	?	?	?
COc1cccc(N2CCN(C(=O)c3c4c(nc5ccccc35)C(=O)N(C3CCCCC3)C4)CC2)c1	-4.3%	/	-13%	/	-11%	-9%[46.1 µM]	/	/
CC(C)CCNC(=O)c1sc2ccc(S(=O)(=O)N3CCCCC3)cc2c1N	-13%	5%	-19%	12%	-13%	-27%[46.1 µM]	?	?
NC(=O)[C@H]1CC2(CC(c3cccc(NC(=O)CC(c4ccccc4)c4ccccc4)c3)=NO2)CN1C(=O)C(c1ccccc1)c1ccccc1 (stereo not given in full)	/	4%	/	0%	-25%	/	/	?
Cc1ccc2c(CN3CCN(CCO)CC3)cc(=O)oc2c1	0.6%	-1%	-6%	-1%	24%	6%	14%	-2%
O=C1C(c2cc(=O)c3ccccc3[nH]2)=C(O)c2ccccc21	0.0%	-16%	-7%	-21%	-12%	?	5.6µM*	11%
COC(=O)COc1ccc(S(=O)(=O)Nc2ccc3c(c2)OCCO3)cc1C	/	-8%	/	-13%	-18%	27%[46.1 µM]	3%[46.1 µM]	8%
C=CCN1C(=O)SC(Cc2cccc(OC)c2O)C1=O (stereo not given)	/	-2%	/	-3%	8%	0%	0%[46.1 µM]	/
CC(C)(C)NC(=O)COC(=O)c1ccc(Cl)c(S(N)(=O)=O)c1	/	-7%	/	3%	29%	/	?	/
CCCCn1c(=NC(=O)c2cccnc2)c(C#N)cc2c(=O)n3cccc(C)c3nc21	-28%	15%	15%	7%	-27%	7%	10%	1%
Cc1csc(NC(=O)CSc2nncn2C)n1	4.2%	-12%	-5%	31%	21%	5%	0%	-2%
S=C(c1ccc[nH]1)N1CCOCC1	-4.4%	-5%	-3%	3%	2%	-1%	3%	-3%
CNC(=O)c1c(NC(=O)c2ccc(S(=O)(=O)N3CCCc4ccccc43)cc2)sc2c1CCN(C)C2	/	-2%	/	-5%	-6%	/	/	8%
O=C(OCc1csc(Nc2ccccc2)n1)c1ccc(Cl)cc1	-10%	-30%	2%	-3%	?	7%	5%	-23%
COc1ccc(OCC(=O)Nc2ccc(S(=O)(=O)Nc3nc(C)cc(C)n3)cc2)cc1	/	-1%	/	-3%	32%[activator]	1%	13%	-3%

3 compounds from above, reduced to NS1 inh and Cruzain noTriton.
SMILES	NS1 inh	Cruzain noTriton
C=CCN(C(=O)c1csnn1)C(C(=O)NC1CCCC1)c1ccc(F)cc1 (stereo not given)	2%	/
S=C(c1ccc[nH]1)N1CCOCC1	-3%	-3%
NC(=O)[C@H]1CC2(CC(c3cccc(NC(=O)CC(c4ccccc4)c4ccccc4)c3)=NO2)CN1C(=O)C(c1ccccc1)c1ccccc1 (stereo not given in full)	?	/

High-throughput results deposited in PubChem BioAssay by National Center for Advancing Translational Sciences (NCATS).
